HIV Env fusion: blocks HIV Env-driven cell-cell fusion | HeLa-JRFL Env/CEM21 cell fusion, luciferase | hit rate 1.1% among 360,000 | inhibition, % at 12.3 µM;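 active = mean replicate inhibition score of at least 50 and every replicate individually at or above 50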;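 also: 0% = plate neutral controls and 100% = maraviroc near 300 nM; one replicate is shown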
The depositor's hits bear a star; [ ] = dose if it differs, or a comment.

compound | HIV Env fusion
CO[C@H]1CN(C)C(=O)c2cc(NC(=O)Cc3ccccc3)ccc2OC[C@@H](C)NC[C@H]1C | -1[16.7 µM]
CO[C@@H]1CN(C)C(=O)c2ccc(NC(C)=O)cc2OC[C@H](C)N(C(=O)CN(C)C)C[C@@H]1C | 5[16.7 µM]
CCC(=O)N1CCC2(CC1)CN(C(=O)Nc1ccc(F)cc1)[C@H](CO)c1c2c2ccc(OC)cc2n1C | -18[16.7 µM]
CO[C@H]1CN(C)C(=O)c2cc(C#N)ccc2OCC[C@@H]2CC[C@@H](OC)[C@H](CN(C)C(=O)[C@H]1C)O2 | 14[16.7 µM]
O=C(C[C@@H]1C[C@H]2c3cc(NC(=O)Cc4ccncc4)ccc3O[C@H]2[C@H](CO)O1)NCc1ccccn1 | 3[16.7 µM]
C[C@H](CO)N1C[C@H](C)[C@@H](CN(C)S(C)(=O)=O)Oc2cc(-c3ccc(F)cc3)ccc2S1(=O)=O | 13[16.7 µM]
C[C@H]1CN([C@@H](C)CO)C(=O)c2ccccc2-c2ccccc2CO[C@H]1CN(C)C(=O)C1CC1 | 16[16.7 µM]
CCC(=O)Nc1ccc2c(c1)C(=O)N(C)C[C@H](OC)[C@H](C)CN(C(=O)CC)[C@H](C)CO2 | 35[16.7 µM]
C[C@@H]1CN([C@@H](C)CO)C(=O)c2cc(C#CC3CC3)cnc2O[C@H]1CN(C)C(=O)c1ccncc1 | -21[16.7 µM]
O=C(C[C@@H]1CC[C@H]2[C@@H](COC[C@H](O)CN2Cc2cc(F)ccc2F)O1)N[C@H]1CCN(Cc2ccccc2)C1 | -24[16.7 µM]

An excerpt from above in order of heavy-atom count, ascending:
compound | HIV Env fusion
C[C@H](CO)N1C[C@H](C)[C@@H](CN(C)S(C)(=O)=O)Oc2cc(-c3ccc(F)cc3)ccc2S1(=O)=O | 13[16.7 µM]
C[C@@H]1CN([C@@H](C)CO)C(=O)c2cc(C#CC3CC3)cnc2O[C@H]1CN(C)C(=O)c1ccncc1 | -21[16.7 µM]
O=C(C[C@@H]1CC[C@H]2[C@@H](COC[C@H](O)CN2Cc2cc(F)ccc2F)O1)N[C@H]1CCN(Cc2ccccc2)C1 | -24[16.7 µM]

Carrying on.
compound | HIV Env fusion
CS(=O)(=O)Nc1ccc2c(c1)[C@H]1C[C@H](CC(=O)NCC3CC3)O[C@H](CO)[C@H]1O2 | 2[16.7 µM]
C[C@H](CO)N1C[C@H](C)[C@@H](CN(C)C(=O)C2CCCCC2)Oc2ncc(C#CC3CC3)cc2C1=O | 8[16.7 µM]
Cc1ccc(C2c3c(n[nH]c3C(C)C)C(=O)N2c2ccccc2)cc1 (stereo not given) | 3
CNC[C@H]1Oc2ccc(NS(=O)(=O)c3ccccc3)cc2CC(=O)N([C@@H](C)CO)C[C@@H]1C | 5[16.7 µM]
COCC(=O)Nc1ccc2c(c1)OC[C@@H](C)N(Cc1cccc(F)c1)C[C@H](C)[C@@H](OC)CN(C)C2=O | 14[16.7 µM]
COc1ccc2c3c([nH]c2c1)[C@H](CO)N(C(=O)c1ccccc1)CC31CCN(Cc2cccnc2)CC1 | -23[16.7 µM]
NC(=O)c1c(N)[nH]c(C(=O)c2ccccc2)c1-c1ccc(Cl)cc1Cl | -9
CN1C(=O)c2cc(NC(=O)Cc3cccs3)ccc2OC[C@@H]2O[C@@H](CC(=O)NCCc3ccncc3)CC[C@H]21 | -5[16.7 µM]
O=C(NCC[C@H]1CC[C@@H](NC(=O)C2CCOCC2)[C@@H](CO)O1)c1cc(Cl)cc(Cl)c1 | 21[16.7 µM]
O=C(Cc1ccc(NC(=O)C2CCN(C(=O)C3CCCC3)CC2)cc1)Nc1cccc(C(=O)N2CCCC2)c1 | 17
C[C@H]1CN([C@@H](C)CO)C(=O)c2cc(NC(=O)C3CCCCC3)ccc2O[C@H]1CN(C)C(=O)NC1CCCCC1 | 11[16.7 µM]
C[C@@H]1CN([C@H](C)CO)C(=O)Cc2cc(NC(=O)Nc3ccc4c(c3)OCO4)ccc2O[C@@H]1CN(C)S(=O)(=O)c1ccc(F)cc1 | 19[16.7 µM]
CCCN(C)C[C@H]1OCCCC[C@@H](C)Oc2ccc(NC(=O)c3ccccc3)cc2C(=O)N([C@@H](C)CO)C[C@H]1C | -3[16.7 µM]
CCCC(=O)Nc1ccc2c(c1)OC[C@H](C)NC[C@@H](C)[C@H](OC)CN(C)C2=O | -11[16.7 µM]
COC(=O)C[C@H]1CC[C@@H]2[C@H](COc3ccc(NC(=O)c4cccc(Cl)c4)cc3C(=O)N2C)O1 | 4[16.7 µM]
O=C(C[C@H]1CC[C@H]2[C@@H](COC[C@@H](O)CN2C(=O)c2cccnc2)O1)Nc1ccc(-c2ccccc2)cc1 | -6[16.7 µM]
CCCN1C[C@@H](C)[C@@H](OC)CN(C)C(=O)c2cc(NC(=O)Nc3cccc(F)c3)ccc2OC[C@@H]1C | -4[16.7 µM]
CO[C@@H]1CN(C)C(=O)c2ccc(NC(=O)c3ccc4c(c3)OCO4)cc2OC[C@@H](C)N(CCC(F)(F)F)C[C@@H]1C | 5[16.7 µM]
O=C(C[C@@H]1C[C@@H]2c3cc(NC(=O)NC4CCCC4)ccc3O[C@@H]2[C@@H](CO)O1)NCc1ccccc1F | -24[16.7 µM]
CC(C)=CCCC1=CC[C@H]2[C@@H](C1)C(C(C)C)=CC(=O)[C@@]2(C)O | 14
Cc1cc2c(c(=O)o1)[C@@]1(C(=O)N(C)c3ccccc31)C1=C(CCC1=O)O2 | -4
C[C@@H](NC(=O)C[C@H]1CC[C@@H]2[C@@H](COc3ccc(NS(=O)(=O)c4ccc(Cl)cc4)cc3C(=O)N2C)O1)c1ccccc1 | -12[16.7 µM]
COCCNC(=O)C[C@@H]1C[C@@H]2c3cc(NC(=O)CN(C)C)ccc3O[C@@H]2[C@H](CO)O1 | 8[16.7 µM]
Cc1ccc(S(=O)(=O)N[C@H]2C=C[C@H](CC(=O)NCCN3CCCCC3)O[C@H]2CO)cc1 | 2[16.7 µM]
C[C@H](CO)N1C[C@H](C)[C@@H](CN(C)S(=O)(=O)c2cccc(F)c2)OCc2ccccc2-c2ccccc2C1=O | 23[16.7 µM]
O=C(C[C@H]1C[C@H]2c3cc(NC(=O)c4cccnc4)ccc3O[C@H]2[C@H](CO)O1)NCCN1CCCCC1 | 5[16.7 µM]
Cc1ccc(S(=O)(=O)Nc2ccc3c(c2)CC(=O)N([C@@H](C)CO)C[C@@H](C)[C@@H](CN(C)Cc2ccc(C(F)(F)F)cc2)O3)cc1 | 29[16.7 µM]
COc1ccc(NC(=O)N(C)C[C@@H]2Oc3ccc(NC(=O)CCC(F)(F)F)cc3C(=O)N([C@H](C)CO)C[C@@H]2C)cc1 | -5[16.7 µM]
C[C@H](CO)N1C[C@H](C)[C@H](CN(C)C(=O)Nc2ccc(F)cc2)Oc2ncc(-c3ccccc3)cc2C1=O | 3[16.7 µM]
O=C(C[C@@H]1C=C[C@H](NC(=O)c2ccccn2)[C@@H](CO)O1)NCc1cc(F)cc(F)c1 | -5[16.7 µM]
COc1cc2c(c(OC)c1OC)C1(CCCCC1)CC2NC(=O)c1ccncc1 (stereo not given) | 4
O=C1[C@@H]2CSCCS(=O)(=O)N2C(=O)N1C1CCCCC1 | 5
COc1cccc(CNC(=O)C[C@@H]2C=C[C@H](NC(=O)C3CCC3)[C@@H](CO)O2)c1 | -16[16.7 µM]
C[C@@H]1CCCCO[C@H](CN(C)Cc2ccc3c(c2)OCO3)[C@H](C)CN([C@@H](C)CO)C(=O)c2cc(N(C)C)ccc2O1 | 5[16.7 µM]
O=S(=O)(CS(=O)(=O)c1ccccc1Br)c1ccccc1Br | -2
C[C@H]1CN([C@@H](C)CO)C(=O)CCCn2cc(nn2)CO[C@H]1CN(C)C(=O)Nc1cccc(F)c1 | -11[16.7 µM]
C[C@H]1CN([C@@H](C)CO)C(=O)c2c(c3ccccc3n2C)-c2ccccc2CO[C@H]1CN(C)C(=O)Nc1ccc(F)cc1 | 53[16.7 µM]
C[C@H](CO)N1C[C@H](C)[C@H](CN(C)Cc2ccc(C(=O)O)cc2)Oc2ccc(NC(=O)CCCN(C)C)cc2C1=O | 9[16.7 µM]
C[C@@H]1CCCCO[C@H](CN(C)S(C)(=O)=O)[C@H](C)CN([C@@H](C)CO)C(=O)c2cc(NC(=O)Cc3ccccc3)ccc2O1 | -12[16.7 µM]
CN1C(=O)c2cc(NC(=O)Cc3cccs3)ccc2OC[C@H]2O[C@H](CC(=O)N[C@@H]3CCN(Cc4ccccc4)C3)CC[C@@H]21 | 10[16.7 µM]

An excerpt of these results, with values ahead of the structure.
HIV Env fusion	Molecule
5	O=C1[C@@H]2CSCCS(=O)(=O)N2C(=O)N1C1CCCCC1
53[16.7 µM]	C[C@H]1CN([C@@H](C)CO)C(=O)c2c(c3ccccc3n2C)-c2ccccc2CO[C@H]1CN(C)C(=O)Nc1ccc(F)cc1
9[16.7 µM]	C[C@H](CO)N1C[C@H](C)[C@H](CN(C)Cc2ccc(C(=O)O)cc2)Oc2ccc(NC(=O)CCCN(C)C)cc2C1=O
10[16.7 µM]	CN1C(=O)c2cc(NC(=O)Cc3cccs3)ccc2OC[C@H]2O[C@H](CC(=O)N[C@@H]3CCN(Cc4ccccc4)C3)CC[C@@H]21

(continued)
structure | HIV Env fusion
O=C(Cc1cccnc1)N1CC2(C1)[C@@H](c1ccccc1)[C@@H](CO)N2C(=O)C1CCC1 | 8[16.7 µM]
CO[C@H]1CC[C@H]2CCN(C)C(=O)CCCN(C)C(=O)c3cc(C#N)ccc3OC[C@H]1O2 | 15[16.7 µM]
COC(=O)C1=C(C)N(C)C(=NCC2CC2)NC1c1ccc(F)cc1 (stereo not given) | -15
C[C@@H]1CN([C@@H](C)CO)C(=O)c2cc(NS(=O)(=O)c3cn(C)cn3)ccc2O[C@@H](C)CCCCO[C@H]1CN(C)CC1CC1 | 11[16.7 µM]
COC(=O)C[C@H]1CC[C@@H]2[C@@H](COc3ccc(NC(=O)Cc4cccs4)cc3C(=O)N2C)O1 | 15[16.7 µM]
C[C@H](O)[C@@H]1C(=O)N2CCc3c([nH]c4c(-c5ccc6c(c5)OCO6)cccc34)[C@@H]2C[C@@H]1N(C)C(=O)c1ccco1 | -31
C[C@@H](NC(=O)C[C@H]1CC[C@@H](NC(=O)c2cccnc2)[C@H](CO)O1)c1ccccc1 | -4[16.7 µM]
CO[C@@H]1CN(C)C(=O)c2ccc(NS(C)(=O)=O)cc2OC[C@H](C)N(CC2CCCCC2)C[C@@H]1C | -15[16.7 µM]
Cc1noc(C)c1NC(=O)Nc1ccc2c(c1)CC(=O)N([C@H](C)CO)C[C@H](C)[C@@H](CN(C)C(=O)Nc1cccc3ccccc13)O2 | 2[16.7 µM]
CN1C(=O)c2cc(NC(=O)C3CCOCC3)ccc2OC[C@H]2O[C@H](CC(=O)NCc3ccc4c(c3)OCO4)CC[C@@H]21 | 5[16.7 µM]
Cn1c(=O)c2c(nc(NCCCN3CCOCC3)n2Cc2ccc(Cl)c(Cl)c2)n(C)c1=O | -25
COC(=O)C1=C(C)N(Cc2cccc(C(F)(F)F)c2)C(=NCc2ccccc2)NC1c1ccccc1C(F)(F)F (stereo not given) | -46
Cc1ccc(S(=O)(=O)Nc2ccc3c(c2)CC(=O)N([C@@H](C)CO)C[C@H](C)[C@@H](CN(C)Cc2ccc(C(F)(F)F)cc2)O3)cc1 | 6[16.7 µM]
Cc1ccc(S(=O)(=O)Nc2ccc3c(c2)CC(=O)N([C@H](C)CO)C[C@@H](C)[C@H](CN(C)Cc2ccc(C(=O)O)cc2)O3)cc1 | 5[16.7 µM]
CCCNC(=O)N1C[C@H](O)COC[C@@H]2O[C@H](CC(=O)N3CCC(Cc4ccccc4)CC3)CC[C@H]21 | 31[16.7 µM]
CO[C@H]1CN(C)C(=O)c2ccc(NC(=O)NC(C)C)cc2OC[C@@H](C)N(Cc2cocn2)C[C@H]1C | -2[16.7 µM]
COc1ccccc1CCn1cnc(-c2ccccc2OC)c1CC(C)C | 15
COc1ccccc1CNC(=O)C[C@H]1CC[C@@H]2[C@H](COC[C@H](O)CN2C(=O)Nc2ccc(F)cc2)O1 | -6[16.7 µM]
CCCCCCCCN1C(=O)[C@@H](CC(=O)N2CCOCC2)C[C@@]2(C(=O)OC)C1=C[C@H](C(C)(C)C)O[C@@H]2C | 25
CO[C@H]1CN(C)C(=O)c2ccc(NS(C)(=O)=O)cc2OC[C@H](C)N(Cc2nccs2)C[C@@H]1C | -3[16.7 µM]
C[C@@H]1CN([C@H](C)CO)C(=O)Cc2cc(NC(=O)C3CC3)ccc2O[C@@H]1CN(C)Cc1ccc(Cl)c(Cl)c1 | -8[16.7 µM]
CO[C@H]1CN(C)C(=O)c2cc(NS(=O)(=O)CC(F)(F)F)ccc2OC[C@H](C)N(CC2CCCCC2)C[C@H]1C | 43[16.7 µM]
COc1ccc2c3c(n(C)c2c1)[C@@H](CO)N(Cc1ccccc1OC)CC31CCN(CC2CCOCC2)CC1 | -18[16.7 µM]
C[C@@H]1CN([C@@H](C)CO)C(=O)c2cc(NS(C)(=O)=O)ccc2O[C@@H]1CN(C)C(=O)Nc1cccc2ccccc12 | 1[16.7 µM]
CO[C@@H]1CN(C)C(=O)c2ccc(NC(=O)NC3CCCCC3)cc2OC[C@@H](C)N(CC2CCOCC2)C[C@H]1C | -33[16.7 µM]
CNC[C@H]1OCCCC[C@H](C)Oc2ccc(NS(=O)(=O)c3ccccc3)cc2C(=O)N([C@@H](C)CO)C[C@@H]1C | -6[16.7 µM]
CC(C)CC#Cc1ccc2c(c1)O[C@@H](CN(C)Cc1ccccc1)[C@@H](C)CN([C@H](C)CO)S2(=O)=O | -3[16.7 µM]
CC(C)C[C@H](NC(=O)C1CC1)C(=O)N1CCC[C@H]1C(=O)NCc1ccccc1 | -6
CO[C@@H]1CN(C)C(=O)c2ccc(NC(=O)c3cnccn3)cc2OC[C@H](C)NC[C@H]1C | -10[16.7 µM]
O=C(C[C@H]1CC[C@H]2[C@@H](COC[C@H](O)CN2C(=O)c2ccncc2)O1)NC1CCC1 | 8[16.7 µM]
CO[C@@H]1CN(C)C(=O)c2ccc(NC(=O)c3cnccn3)cc2OC[C@H](C)N(CCc2ccccc2)C[C@H]1C | 16[16.7 µM]

Assay outcomes (PubChem BioAssay)

These rows are one share of the data. The share of hits here may be higher or lower than overall.
